Screens: PubChem BioAssay, National Center for Advancing Translational Sciences (NCATS)
MARV entry inh – qHTS for Inhibitors of binding or entry into cells for Marburg Virus; Marburg virus pseudotype entry/binding inhibition, cell-based; control for the full effect not named in the record; many of its hits are not listed in these tables; Potency, µM (doses to about 49.2 µM), for the others: at the highest dose activity change, negative = inhibition, actives largely listed as inhibitors; hit rate 6.5% among 18,000; active means well fitted inhibition curve with a large enough effect; inconclusive means small, poorly fitted or top-dose-only effect; inactive means no such curve, though single readings can be large or run the other way; tested in HEK293 cells; also: luciferase read-out
LASV entry inh – qHTS for Inhibitors of binding or entry into cells for Lassa Virus. AID 720533, 2013. Potency, µM (top dose mostly 49.2 µM), inactives show at the highest dose activity change, negative = inhibition, most hits filed as inhibitors. Lassa virus pseudotyped entry inhibition, cell-based qHTS; control for the full effect not named in the record; many of its hits are not listed in these tables. hit rate 4.1% among 18,000; active = well fitted inhibition curve with a large enough effect; inconclusive = small, poorly fitted or top-dose-only effect; inactive = no such curve, though single readings can be large or run the other way; tested in HEK293 cells; also: luciferase read-out
* marks the source's active call; other numbers are inactive results; ? = inconclusive; nt = no result given; & = joins results of further samples; ! = not active in a repeat; [ ] = another dose, or the depositor's remark. % is scaled to controls: 0 for no effect and ±100 for the full control effect; potency is read from the fitted curve at half-maximal effect. An unsorted share of the library; about 7.3% have a hit in one of these screens.

SMILES	MARV entry inh	LASV entry inh
CCCNC(=O)N1C2=NC(C(=O)OC)=C(C(=O)OC)[C@@H]3Nc4ccccc4[C@]23C[C@H]1C(=O)OC	3%[8.59 µM]	31%[activator][8.59 µM]
O=c1c(O)c(-c2ccc(O)cc2O)oc2cc(O)cc(O)c12	?	-4%&-8%
COC(=O)N[C@@H](c1cccc(F)c1)C(C(C)=O)C(=O)OC (stereo partly specified)	-6%	2%
COc1ccc(-n2c(CNC(=O)c3c(-c4ccccc4)noc3C)nnc2SC)cc1	6%	-4%
Cc1ccccc1C1(CC(=O)N2CCC[C@H]2C(N)=O)CC(=O)N(C2CCCC2)C1=O (stereo partly specified)	-2%	12%
O=C(O)/C=C/C(=O)Nc1ccc(S(=O)(=O)Nc2nccs2)cc1	-2%	-9%
CCCCCC(=O)N1C[C@@H](n2cc(COC(=O)c3ccccc3)nn2)[C@H](O)C[C@H]1c1ccc(OC)cc1	26%	-20%
C[C@H]1Cc2c(COc3ccccc3)nc3c(c2CO1)CN(C(=O)Nc1cccc(C#N)c1)CC3	21%&2%[8.59 µM]	-12%&-16%[8.59 µM]
COC(=O)C1=C(C(=O)OC)[C@@H]2N(C)c3ccccc3[C@@]23C[C@@H](C(=O)OC)N(C(=O)c2ccco2)C3=N1	74%[activator][8.59 µM]	12%[8.59 µM]
FC(F)(F)c1ccccc1-c1cc(N2CCNCC2)ncn1	-5%	6%
COc1ccc(CN2C[C@H](COCc3ccccc3)Oc3cccc(F)c3S2(=O)=O)cc1	-29%	nt
CCN(CC)C(C)C(=O)c1ccccc1 (stereo unspecified)	6%	2%
NNCc1ccccc1	49%[activator]	65%[activator]
C=CCOP1(=O)O[C@H](CC=C)C[C@H](CC=C)O1 (stereo partly specified)	?	38%[activator]
COc1ccc(CNC(=O)c2cnn(-c3ncc4c(n3)-c3ccccc3CC4)c2C)cc1OC	63%[activator]	12%
Cc1c(O)c(=O)ccn1C	2%	-1%
COc1cc2c(cc1OC)C(=O)OC2	7%	-4%
COc1cc2c(cc1OC)-c1c(OC)c(OC)c(C=O)c3c1[C@H](C2)N(C)CC3	-14%	-19%
CCCCCCCCC1OC1CCCCCCCC(=O)O (stereo unspecified)	-8%	-2%
O=C(NCCCCc1ccccc1)c1cccc(NC(=O)C2CCCCC2)c1	11%	10%
CC(=O)O[C@@H]1C(CO[Si](C)(C)C(C)(C)C)=C(Br)C(=O)[C@@H]2O[C@]12C	-10%	4%
CC(C)C[C@@H]1NC(=O)[C@@H]2CSCCS(=O)(=O)N2C1=O	15%	16%
CNc1ccccc1C(=O)OCC(C)=O	?	-17%[8.59 µM]
O=C(/C=C/c1ccc(/C=C/C(=O)Nc2ccc(C3=NCCN3)cc2)cc1)Nc1ccc(C2=NCCN2)cc1	?	-10%
Cc1ccc2cc(CNCc3cccc4ccccc34)c(N3CCC(O)CC3)nc2c1	?	-20%
CC(C)(C)c1ccc2c(S(=O)(=O)O)c(C(C)(C)C)ccc2c1	-5%[107 µM]	-16%[107 µM]
COCCN1CCN(C(=O)c2cnn(-c3nccc(-c4ccccc4OC)n3)c2-c2ccco2)CC1	8%	4%
CC1(OC(=O)CCc2ccccc2)C(=O)C=C2C=C(c3ccc(C#N)cc3)N(CC3CC3)C=C2C1=O (stereo unspecified)	12%[8.59 µM]	26%[8.59 µM]
CSc1ccccc1C(=O)NCC1Cc2cccc(-c3ncccc3C)c2O1 (stereo unspecified)	10%	-7%
CC(=O)OC[C@H]1O[C@@H](ON=C2C[C@@H](O)[C@@H](O)[C@@H]3[C@H]4C(=O)N(C5CCCCC5)C(=O)[C@@H]4CC[C@@H]23)[C@H](OC(C)=O)[C@@H](OC(C)=O)[C@H]1OC(C)=O	-25%[8.59 µM]	-1%[8.59 µM]
CC1CC(=O)NN=C1c1ccc(NCC(C)(C)NCC(O)COc2cc(Cl)ccc2C#N)cc1 (stereo unspecified)	?	0%
CCCCC(CC)CN1CN(CC(CC)CCCC)CC(C)(N)C1 (stereo unspecified)	-4%	-4%
Cc1cnc2c(C(=O)O)c(Cl)ccc2c1	0%	-11%
Oc1ccc(Cl)cc1Cc1ccccc1	-16%[107 µM]	25µM*
c1ccc(-c2nc(-c3ccccc3)c(Nc3ccc4ccccc4c3)o2)cc1	29%	9%
COC(=O)CCC(=O)OC1(C)C(=O)C=C2C=C3CCCN3C=C2C1=O (stereo unspecified)	-43%[8.59 µM]	-15%[8.59 µM]
CO/C1=C\C(C)=C\[C@@H](C)[C@@H](O)[C@@H](C)C/C(C)=C/C=C\[C@H](OC)C([C@@H](C)[C@@H](O)[C@H](C)[C@@]2(O)C[C@@H](O)[C@H](C)C(C(C)C)O2)OC1=O (stereo partly specified)	0.015µM*	0.023µM*
COCOCCn1cc(CN2CCS(=O)(=O)N(Cc3ccc(-c4ccc(Cl)c(Cl)c4)cc3)C(C)C2=O)nn1 (stereo unspecified)	-35%	-26%
O=C(Nc1cccc(C(=O)Nc2ccc(S(=O)(=O)O)c3cc(S(=O)(=O)O)cc(S(=O)(=O)O)c23)c1)Nc1cccc(C(=O)Nc2ccc(S(=O)(=O)O)c3cc(S(=O)(=O)O)cc(S(=O)(=O)O)c23)c1	32µM*!	-28%&-19%&-2%
NS(=O)(=O)c1ccc(N=Nc2c(O)[nH]c3cccc(CCc4ccncc4)c23)cc1	?	27%
COc1ccc(COC(=O)NN=C2C[C@@H](O)[C@@H](O)[C@@H]3[C@H]4C(=O)N(C[C@@H]5CCCO5)C(=O)[C@@H]4CC[C@H]23)cc1	?	0.6µM*
CCN1C(=NCCOC)N[C@@H](c2ccccc2)[C@H](C(=O)OC)[C@H]1C	12%[8.59 µM]	-28%[8.59 µM]
COC(=O)c1cc(CNC(=O)c2ccccc2)cc(NC(=O)c2ccccc2OC)c1	-15%	?
Cc1c(C)c2c(c(C)c1O)CCC(C)(COc1ccc(Cc3sc(=O)[nH]c3O)cc1)O2 (stereo unspecified)	-18%	-10%
CCN(Cc1ccncc1)Cc1ccc2c(c1)CN(C(=O)c1ccc(OC)cc1)CCO2	4%	-11%
COc1ccccc1CNc1ncnc2ccc(-c3ccccc3CN(C)C)cc12	20µM*	-6%
CCOC(=O)CN1C(=O)NC(CCc2ccccc2)C(C(C)=O)=C1C (stereo unspecified)	4%[8.59 µM]	-21%[8.59 µM]
NC(=O)COc1c(F)cc(SCCNS(=O)(=O)c2ccccc2)cc1F	11%	-25%
N[C@H](C(=O)O)c1cc(=O)[nH]o1	5%	9%
COc1ccc([C@]23Cc4cc(C#N)ccc4[C@H](O2)c2c(cc(-c4ccccc4)oc2=O)O3)cc1	7%[8.59 µM]	3%[8.59 µM]
COC(=O)C1=C(C)N(Cc2ccccc2)C(=O)N[C@@H]1c1ccccc1	9%	-4%
O=C1NC(=O)c2c1c1c3ccccc3[nH]c1c1[nH]c3ccccc3c21	?	-17%
C=CCOC(=O)N[C@@H](c1coc2ccccc2c1=O)[C@@H](C)C=CCC(=O)OC	-3%[8.59 µM]	-11%[8.59 µM]
OC[C@@H]1[C@@H](O)[C@H](O)[C@H]2[C@@H](O)CCN21	6%	-16%
CC1=CC[C@@H](C)O[C@@]2(C1)C(=O)N(Cc1ccc(Br)cc1)c1ccccc12	14%[8.59 µM]	nt
COc1ccc2c(c1)O[C@@H](c1ccc3c(c1)OCO3)[C@H](OC(=O)Nc1cc(OC)c(OC)c(OC)c1)C2=O	?	4%
COC1C(O)C(CO)OC1n1cnc2c(NC3CCCCC3)ncnc21 (stereo unspecified)	-7%	1%
CN1C(=O)N(C)C2=NNC=NC2(O)C1=O (stereo unspecified)	?	?
CS(=O)(=O)c1ccc(-c2ccc3c(c2)CC(CNC(=O)C2(N4CCOCC4)CCCCC2)O3)cc1 (stereo unspecified)	-26%	-12%
Oc1ccc(Cl)cc1CN1CCOc2c(O)cc(-c3nc4ccccc4s3)cc2C1	-17%	1.6µM*
Later entries.
SMILES	MARV entry inh	LASV entry inh
ClC=C(Cl)Cl	24%	9%
OCCN1CCN(CCCN2c3ccccc3Sc3ccc(C(F)(F)F)cc32)CC1	7.1µM*	16µM*!
CNCCCCOc1ccccc1Cc1ccccc1	7.1µM*	?
CCCCCCN1CCN(C2CN(Cc3cn(Cc4ccc(C(F)(F)F)cc4)nn3)S(=O)(=O)C2)CC1 (stereo unspecified)	?	-26%
CCCCOc1cc(C[C@@H]2CNC(=O)N2)ccc1OC	7%	10%
Cc1cccc2cc(CN(CC3CCCO3)C(=O)c3cccc(F)c3)c(N(C)C)nc12 (stereo unspecified)	-18%	-9%
O=S(=O)(O)c1cc(I)c(O)c2ncccc12	-20%	?
O[C@H]1[C@H](O)[C@@H](O)CN2CC[C@H](O)[C@H]12	0%&1%	-11%&6%
COc1ccc(-c2nc3cc(F)ccc3cc2CN(C(=O)c2cccs2)C2CC2)cc1	-1%	1%
CC(C)n1cnc2c(NCc3ccccc3)nc(NCCCO)nc21	23%	25%
CCCCS(=O)(=O)N1CCc2nc(-c3ccccc3)c3c(c2C1)CO[C@@H](C)C3	45%[activator][8.59 µM]	-3%[8.59 µM]
CN(CCc1ccc(Cl)c(Cl)c1)CCN1CCCCCC1	10µM*	?
CC1(C)O[C@@H](C(O)(c2ccccc2)c2ccccc2)[C@H](C(O)(c2ccccc2)c2ccccc2)O1	-19%[8.59 µM]	-33%[8.59 µM]
O=S1(=O)CC(N2CC=CC2)CN1C1CCCCC1 (stereo unspecified)	27%	15%
COP(=S)(OC)Oc1ccc([N+](=O)[O-])c(C)c1	6%	-6%
CCN(Cc1ccncc1)Cc1ccc2c(c1)CN(C(=O)c1cccc3c(C)c(C)[nH]c13)CCO2	?	-8%
CC(C)CON=C1C[C@@H](O)[C@@H](O)[C@@H]2[C@H]3C(=O)N(Cc4ccc5c(c4)OCO5)C(=O)[C@@H]3CC[C@H]12	30%[activator][8.59 µM]	20%[8.59 µM]
c1ccc2occc2c1	13%[107 µM]	-21%[107 µM]
CCCCCN(C)CCC(O)(P(=O)(O)O)P(=O)(O)O	3%	-6%
CCOC(=O)c1ncn2c1[C@H]1CCCN1C(=O)c1cc(OC)ccc1-2	5%	0%
CCOC(=O)CN1C(=O)NC(c2cccc(F)c2)C(C(C)=O)=C1C (stereo unspecified)	13%[8.59 µM]	4%[8.59 µM]
CCCCn1c(C)cc2c(c1=O)[C@H]1O[C@](CCCC)(Cc3cc(C#N)ccc31)O2	?	14%[8.59 µM]
C[C@]12C=CC(=O)C=C1CC[C@@H]1[C@@H]2[C@@H](O)C[C@@]2(C)[C@H]1CC[C@]2(O)C(=O)COC(=O)CCC(=O)O	-9%&1%	12%&-3%
Cc1noc(C)c1-c1nccc(N2CCNCC2)n1	-14%	-8%
CN(C)Cc1ccccc1-c1cc(-n2ccnc2)ncn1	-3%	4%
Cc1cc(CNC(=O)CCN2Cc3cc(Cl)ccc3OC(C)C2)nn1C (stereo unspecified)	-2%	2%
COc1ccccc1C1CC(=O)Oc2cc(C)cc(C)c21 (stereo unspecified)	?	?
O=S(c1cc(Cl)cc(Cl)c1O)c1cc(Cl)cc(Cl)c1O	-12%	?
CON(C)C(=O)Nc1ccc(Br)c(Cl)c1	15%	3%
CCCCC[C@H](O)/C=C/C=C/C=C/[C@@H](O)C/C=C\CCCC(=O)O	2%	4%
NS(=O)(=O)c1ccc(C(=O)O)cc1	6%	-14%
Clc1cccc2c1CN(C1=NCCN1)C2	-13%	-3%
CC(C)C[C@H](NC(=O)[C@H](Cc1ccccc1)NC(=O)[C@H](Cc1ccccc1)NC(=O)[C@@H](N)CO)C(=O)N[C@@H](CCCN=C(N)N)C(=O)N[C@@H](CC(N)=O)C(=O)O	1%	-1%
CCCCCCCCC(=O)NCc1ccc(O)c(OC)c1	5%&-7%	0%&1%
CCCCC/C=C\C/C=C\C/C=C\CCCCCCC(=O)O	10%&4%	0%&-16%
CCN1C(=O)[C@@H]2[C@H]3[C@H](O)[C@H](O)CC(=NO[C@@H](C)c4cn([C@H](CO)Cc5ccccc5)nn4)[C@@H]3CC[C@H]2C1=O	-3%[8.59 µM]	nt
C=CCCC1(CCC)C(=O)C(=C(O)c2ccccc2)C(=O)C(CCC)=C1OC (stereo unspecified)	-2%[8.59 µM]	6%[8.59 µM]
CC1(C)C(=O)NC2=C1C(=O)C(=O)c1ccccc12	4µM*	13µM*
